# Env fusion inh: inhibitors of HIV Env-mediated cell fusion. AID 651610. inhibition, % at 12.3 µM. 360,000 compounds, 1.1% hits. HeLa-JRFL Env/CEM21 cell fusion, luciferase;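 active = mean replicate inhibition score of at least 50 and every replicate individually at or above 50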;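 also: 0% = plate neutral controls and 100% = maraviroc near 300 nM; one replicate is shown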
# MT1-MMP act inh: inhibitors of human MT1-MMP activation | P50281 | 360,000 compounds, 0.061% hits | AID 651647 | GFP/RFP ratio change, % at 20 µM | HT1080 RFP-PRO-GFP cells, GFP/RFP ratio fluorescence, overnight; percent of plate control window, DMSO zero;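 active = GFP/RFP ratio change of at least 30% with cell ATP level not reduced by more than half and red fluorescence within 50% of control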; also: strong numbers were not always called active
#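 Assay system: HT1080 RFP-PRO-GFP cells. Benchmarks: DMSO vehicle wells and RFP-L50D-GFP reporter cell wells. Times: overnight cell settling, then overnight compound exposure, 37 °C, 5% CO2. Compound: 20 µM single dose, 1% DMSO. Read-out basis: GFP/RFP fluorescence ratio.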
# eIF4H inh: inhibitors of RNA binding by human eIF4H | inhibition, % at 35 µM | 290,000 compounds, 0.94% hits | eIF4H fluorescence polarization binding assay | Q15056;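 active = 50% or more with normal probe brightness, or confirmed in later tests; about a fifth of its hits are not listed in these tables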;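 also: calls also rest on retests at 20 µM and on dose response follow-up; 0% = protein and probe with vehicle and 100% = probe without protein; strong numbers were not always called active; many hits fall short of the cut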
# Rce1 inhib: yeast Ras-converting enzyme inhibition; yeast membranes, quenched prenylated peptide cleavage fluorescence; AID 2563; 290,000 compounds, 0.27% hits; calls only; Q03530;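 active = fall in fluorescence gain of 50% or more versus controls, with final raw signal at or below 3038400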;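 also: plate controls were neutral control wells for no effect and wells lacking membranes for full effect; tested at 10 µM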
# Target sequence (Q03530 whole entry, looked up): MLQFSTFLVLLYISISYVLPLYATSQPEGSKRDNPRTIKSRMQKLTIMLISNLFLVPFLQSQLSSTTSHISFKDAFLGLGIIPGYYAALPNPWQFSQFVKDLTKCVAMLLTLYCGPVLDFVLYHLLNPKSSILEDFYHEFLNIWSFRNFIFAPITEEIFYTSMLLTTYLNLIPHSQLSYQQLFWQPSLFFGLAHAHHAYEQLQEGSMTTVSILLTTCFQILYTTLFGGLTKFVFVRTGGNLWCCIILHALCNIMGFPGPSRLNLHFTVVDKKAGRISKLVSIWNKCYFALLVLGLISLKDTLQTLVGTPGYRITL
# CSC inhib: blocks cancer stem cells; cancer stem cell-like cells viability, luminescence; inhibition, % at 7.5 µM; 300,000 compounds, 1.1% hits; AID 2717;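 active = mean at 75% or more and at least half the replicates too; tested in HMLE shEcad cells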;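 also: 0% = median of negative and 100% = median of positive control wells; the first replicate is given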
# PABP polyA inh: blocks human PABP binding to poly(A) RNA; P11940; 290,000 compounds, 1% hits; inhibition, % at 35 µM; fluorescence polarization; AID 2014;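 active = 50% or more with normal probe brightness, or confirmed in later tests; about a fifth of its hits are not listed in these tables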;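 also: calls also rest on retests at 20 µM and on dose response follow-up; controls were probe without protein and protein plus probe with vehicle; some compounds called inactive have numbers as strong as hits; many hits fall short of the cut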
# UUG fidelity: alters start codon recognition fidelity in yeast | S. cerevisiae UUG-firefly luciferase reporter, luminescence/redox ratio | activity score, % at 18.7 µM | 350,000 compounds, 0.13% hits | AID 602363;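 active = replicate mean at a twofold rise or more, about +100% in these data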;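 also: firefly luciferase made from a UUG start codon reports start codon fidelity; reporter light over untreated wells divided by growth signal over untreated wells; some hits fall short of that in this replicate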
# eIF4H inh retest: recorded beside eIF4H inh, whose call it bears; inhibition, %; compound at 20 µM; confirmation average;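 mean of two retest wells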
# PABP polyA inh retest: recorded beside PABP polyA inh, whose call it bears; inhibition, %; compound at 20 µM; confirmation repeats;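 mean of two retest wells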
# MT1-MMP act inh RFP: also measured in MT1-MMP act inh; calls as there; RFP signal change, %; measured here: RFP expression control read;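 0 = vehicle wells; hits needed this value within 50% of zero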
# Active calls of the source: *; i = inactive; · = no result given.
# A first look, 2 compounds:
SMILES,Env fusion inh,MT1-MMP act inh,MT1-MMP act inh RFP,eIF4H inh,Rce1 inhib,CSC inhib,PABP polyA inh,UUG fidelity,others
CCCCCC(=O)N1CC2(CC(c3cccc(NC(=O)c4ccccc4)c3)=NO2)C[C@@H]1C(N)=O (stereo partly specified),-28,4,0,4,i,18,2,-21,
CCOC(=O)c1cnn(-c2ccccc2)c1N,·,6,1,-1,i,-26,1,-4,

# All compounds of this part (from the top)
SMILES,Env fusion inh,MT1-MMP act inh,MT1-MMP act inh RFP,eIF4H inh,Rce1 inhib,CSC inhib,PABP polyA inh,UUG fidelity,others
CCCCCC(=O)N1CC2(CC(c3cccc(NC(=O)c4ccccc4)c3)=NO2)C[C@@H]1C(N)=O (stereo partly specified),-28,4,0,4,i,18,2,-21,
CCOC(=O)c1cnn(-c2ccccc2)c1N,·,6,1,-1,i,-26,1,-4,
Cc1nc(SCC(=O)NC(C)c2ccccc2)c2oc3ccccc3c2n1 (stereo unspecified),-18,4,-10,-1,i,-5,-8,-18,
COC(=O)[C@]1(C)N[C@H](CN(C)S(=O)(=O)c2ccccc2)[C@@H]2C(=O)N(C)C(=O)[C@@H]21,-69,-1,3,·,·,·,·,-9,
O=C(Nc1ccccc1)Nc1ccc(-n2ccc(C(F)(F)F)n2)cc1,-157,5,-5,-9,i,40,1,-12,
CN(Cc1ccccc1)Cc1nc2scc(-c3ccccc3)c2c(=O)[nH]1,-31,0,-2,-6,i,5,-14,0,
CC(=O)c1ccc(OCCCC(=O)Nc2cc(S(=O)(=O)N(C)C)ccc2C)cc1,18,6,3,-4,i,-22,-5,·,
O=S(=O)(c1ccc(Cl)cc1)c1cnc2ccccc2n1,10,-8,-8,2,i,37,3,-24,
Cc1c(Cl)c([N+](=O)[O-])nn1CC(=O)NCc1cccs1,5,0,-1,3,i,-1,2,-7,
Cc1cccc([C@@H]2C[C@H]3CN(Cc4cccc(Cl)c4)C(=O)[C@]34CCCN24)n1,2,5,6,7,i,-8,-5,1,

# Pulled one by one from the entries so far:
SMILES,Env fusion inh,MT1-MMP act inh,MT1-MMP act inh RFP,eIF4H inh,Rce1 inhib,CSC inhib,PABP polyA inh,UUG fidelity,others
Cc1c(Cl)c([N+](=O)[O-])nn1CC(=O)NCc1cccs1,5,0,-1,3,i,-1,2,-7,
CCCCCC(=O)N1CC2(CC(c3cccc(NC(=O)c4ccccc4)c3)=NO2)C[C@@H]1C(N)=O (stereo partly specified),-28,4,0,4,i,18,2,-21,
Cc1nc(SCC(=O)NC(C)c2ccccc2)c2oc3ccccc3c2n1 (stereo unspecified),-18,4,-10,-1,i,-5,-8,-18,
O=C(Nc1ccccc1)Nc1ccc(-n2ccc(C(F)(F)F)n2)cc1,-157,5,-5,-9,i,40,1,-12,

# Continuation:
SMILES,Env fusion inh,MT1-MMP act inh,MT1-MMP act inh RFP,eIF4H inh,Rce1 inhib,CSC inhib,PABP polyA inh,UUG fidelity,others
O=C(ON=C1CCN(S(=O)(=O)c2ccccc2)CC1)c1ccc(F)cc1,-32,-3,6,-7,i,3,6,-12,
O=C(CN1CCCCC1)Nc1ccccc1Cl,12,-3,-2,-5,i,-12,3,·,
CC[C@]12c3[nH]c4ccccc4c3CCN1C(=O)C(CC(=O)NCCCN(C)C)C[C@@H]2C(=O)N1CCN(C(=O)c2ccco2)CC1 (stereo partly specified),0,3,3,·,·,-11,·,3,
CC(Sc1nc2ccccc2[nH]1)C(=O)Nc1ccccc1F (stereo unspecified),-3,2,2,-9,·,-5,-11,-10,
Cc1cccc(NS(=O)(=O)c2ccc(-n3cccn3)cc2)c1C,19,2,-5,1,i,-14,-1,-19,
CCOC(=O)/C(=N\Nc1cc(Cl)ccc1Cl)N1CCN(C)CC1,4,-4,-6,-6,i,10,-4,-3,
CCCN1C(=O)C2(C(C(=O)c3ccc(C)o3)=C(O)C(=O)N2CCCN2CCOCC2)c2ccccc21 (stereo unspecified),·,3,4,4,i,0,3,4,
Cc1ccc2nc(NC(=O)CSCC(=O)Nc3cc(C)on3)sc2c1,-29,10,0,·,·,-2,·,-20,
COc1cc(Nc2nc(SCC#N)nc3ccccc23)cc(OC)c1OC,-11,-2,-1,-11,i,·,-18,-7,
CCn1cnc2sc(C(=O)Nc3ccccc3OC)c(C)c2c1=O,2,-1,-1,0,i,·,8,-16,
O=C1CCC(C(=O)NCCN2C(=O)S/C(=C\c3cccnc3)C2=O)=NN1,9,-2,1,-4,i,-11,-3,·,
CCCCSC(=S)N(C)C1CCS(=O)(=O)C1 (stereo unspecified),·,2,-1,13,i,1,16,-7,
CCCCOc1ncnc2c1[nH]c1ccc(OCC)cc12,·,1,0,-6,i,-21,-8,-4,
O=C1C(Cc2ccccc2)Nc2ncnc(N3CCCCC3)c2N1Cc1ccc(Cl)cc1 (stereo unspecified),·,-2,0,·,i,4,·,-8,
CC(=O)c1ccc(OCc2cc(C(=O)N3CCN(c4ccccc4)CC3C)no2)cc1 (stereo unspecified),-97,-3,-7,2,i,42,-1,-14,
OCc1nc2ccccc2n1CCc1ccccc1,2,-1,4,-7,i,3,10,8,
Cc1ccc(NC(=O)CCN2C(=O)c3cccc([N+](=O)[O-])c3C2=O)c(Br)c1,-11,-1,-1,-4,i,-25,-5,-6,
CC(c1ccccc1)N(CCC(c1ccccc1)C1CCOC(C)(C)C1)C(=O)c1ccco1 (stereo unspecified),3,-5,1,-8,i,42,7,-5,
Cc1ccc(S(=O)(=O)NCc2ccccn2)c(C)c1C,-9,-2,1,6,i,-16,-16,-13,
CC1CCN(c2ccc(C(=O)O)cc2N)CC1,-41,0,-4,1,i,-2,13,1,
CCOC(=O)/C=C1\SCC(=O)N1CC(=O)NC1CCCCC1,·,3,2,4,i,-5,4,-10,
CC1CN(/C=C/C(=O)C(F)(F)F)CC(C)O1 (stereo unspecified),-25,-2,1,4,i,-11,13,-8,
C=CCNC(=S)NC(=O)c1oc2ccccc2c1C,-31,3,6,-4,i,9,-1,·,
CCOc1ccccc1-n1nnnc1SCC(=O)OC,-6,4,8,-4,i,4,13,-10,
CCc1cc2c(=O)c(-c3nc4ccccc4n3C)c(C)oc2cc1OC(C)=O,11,3,7,-13,i,-10,2,-20,
Fc1ccccc1N1CCN(c2nnnn2-c2ccccc2)CC1,-9,2,0,1,i,-4,9,-4,
Cc1cc(N2CC(C(=O)NCc3cccnc3)CC2=O)ccc1C(C)C (stereo unspecified),14,5,-3,-4,i,-25,4,-18,
NC(=S)N/N=C1\CC(n2nnnc2-c2ccccc2)C2COC1O2 (stereo unspecified),15,2,0,4,i,-12,-10,-18,
C=CCn1c(SCC(=O)c2cc(C)n(Cc3cccs3)c2C)nnc1-c1ccncc1,·,-5,-2,11,i,-6,21,-14,
CCN1CCN(c2nc3c(C)cccn3c(=O)c2/C=C(\C#N)C(=O)NCCCOC)CC1,0,-1,3,7,i,5,10,-5,
CCCn1nc(C(=O)NCc2ccc3c(c2)OCO3)c2ccccc2c1=O,5,-5,-4,-3,i,-8,24,1,
COc1ccc(CC(=O)NNC(=O)CN(C)S(=O)(=O)c2ccc(Cl)cc2)cc1OC,-21,-1,-3,·,·,-1,·,-11,
O=C1CC2(CCN(C(=O)COc3ccc(Cl)cc3)CC2)Oc2ccccc21,9,3,-4,·,i,23,·,·,
CN(c1ccccc1)S(=O)(=O)c1ccc(C(=O)NCc2ccccn2)cc1,10,-3,-5,2,i,-9,-1,·,
Cc1nc(NCc2ccccc2)c(C(N)=O)c2c1COC(C)(C)C2,·,0,-2,-2,i,-13,8,-8,
CC(=O)Nc1ccc(NC(=O)CSc2ccc(-c3ccc4c(c3)OCO4)nn2)cc1,-128,-2,4,4,i,-3,4,·,
CCc1c(C(=O)NNC(=S)NCC(C)C)csc1C,·,0,-3,3,i,0,-1,-12,
CCN(CC)C(=O)c1ccccc1NS(=O)(=O)c1cccs1,4,-6,5,0,i,-17,-10,-28,
CSc1ccc(Cl)c(C(=O)Nc2ccc(N3CCOCC3)cc2)c1,-8,0,-3,-9,i,-4,106,-13,eIF4H inh retest=17;PABP polyA inh retest=-1
CN(CC(=O)Nc1cccc(F)c1)C(=O)c1cc(S(=O)(=O)N(C)C)ccc1N1CCCC1,-3,7,-27,-9,i,-11,-7,-12,
CNCc1cc(C)n(-c2cc(S(=O)(=O)N3CCOCC3)ccc2N2CCCC2)c1C,-40,-16,-4,·,·,·,·,-10,
CCc1ccc(OCCCC(=O)Nc2nccs2)cc1,17,1,-1,-8,i,18,-7,·,
CCc1ccccc1NC(=O)C(Cc1cccc(OC)c1OC)c1nn[nH]n1 (stereo unspecified),-12,1,6,-12,i,-6,1,-18,
Cc1cc(C)nc(NS(=O)(=O)c2ccc(NC(=O)COc3ccccc3)cc2)n1,5,-2,-3,-2,i,-6,2,-5,
Cc1cc(C)cc(NC(=O)C(C)N2C(=O)c3ccccc3C2=O)c1 (stereo unspecified),-6,-3,1,-5,i,-3,-2,-11,
CC(=O)Nc1ccc(NC(=O)c2ccccc2Nc2ccccc2)cc1,-15,2,2,-21,i,-12,2,12,
CSCCC(=O)N1CC[C@@H](N2CCN(c3ccccc3F)CC2)[C@H](O)C1,-11,2,4,3,i,-2,-2,-11,
CC(=O)Nc1ccc(S(=O)(=O)N(CCO)Cc2ccccc2)cc1,-16,-3,1,-9,i,-11,-10,-6,
O=C(Nc1ccccc1)Nc1ccc(C(F)(F)F)cn1,-13,-3,-4,3,i,-2,1,-17,
COc1ccc(Br)cc1/C=N/NC(=O)C[n+]1ccccc1,-2,5,6,0,i,6,11,-3,

# Next section:
SMILES,Env fusion inh,MT1-MMP act inh,MT1-MMP act inh RFP,eIF4H inh,Rce1 inhib,CSC inhib,PABP polyA inh,UUG fidelity,others
O=S(=O)(c1ccc(F)c(F)c1)N1CCCc2ccccc21,7,0,2,-9,i,-7,10,-11,
CC(C)(C)NS(=O)(=O)c1ccc(NS(C)(=O)=O)cc1,·,7,1,-2,i,-8,-4,-31,
O=C(NCc1ccccn1)C(=O)NCC1OCCCN1S(=O)(=O)c1ccc(F)cc1 (stereo unspecified),-2,-1,2,-4,i,-9,-4,-19,
CCOC(=O)C1=C(C)N(C[C@@H]2CC[C@@H](Cc3ccc(-c4ccccc4)cc3)O2)C(=O)NC1c1cccc2ccccc12 (stereo partly specified),17,-8,-16,·,·,·,·,-19,
CC(C)Cn1c(=S)[nH]c2cc(C(=O)O)ccc2c1=O,12,1,4,-8,i,1,7,1,
